Source: PubChem (several laboratories)
YopH PTP inh: inhibitors of Yersinia enterocolitica YopH tyrosine phosphatase; AID 898; fluorescence Ex485/Em525; 140,000 compounds, 0.16% hits; inhibition, %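 (about 10 µM by stock and volumes)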;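 active = inhibition of 50% or more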;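 also: controls were vehicle for no effect and minimum signal wells for full effect; inactives centre near -20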
Mtb bLac sens: beta-lactam sensitization of Mtb H37Rv; M. tuberculosis H37Rv growth with meropenem, percent inhibition; hits of this screen are not shown here; inhibition, % at 25 µM; 330,000 compounds, 0.27% hits;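 active = about 74% or more and at least 40 points above the plate without the antibiotic, then above 30% in a dose series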;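 also: growth measured after seven days incubation then overnight dye step; 0% = bacteria only wells and 100% = bacteria with antibiotic; twin plates without the antibiotic show which effects depend on it; some results filed as inactive read as strong as hits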
RecA intein inh: Mtb RecA intein splicing inhibition; inhibition, %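 (about 9 µM by stock and volumes)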; cell-free RecA intein splicing, fluorescence; AID 2221; 290,000 compounds, 0.75% hits; in the data active = inhibition above about 30%;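 also: 0% = vehicle wells and 100% = reference inhibitor control wells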
Target sequence (P9WHJ3 whole entry, looked up): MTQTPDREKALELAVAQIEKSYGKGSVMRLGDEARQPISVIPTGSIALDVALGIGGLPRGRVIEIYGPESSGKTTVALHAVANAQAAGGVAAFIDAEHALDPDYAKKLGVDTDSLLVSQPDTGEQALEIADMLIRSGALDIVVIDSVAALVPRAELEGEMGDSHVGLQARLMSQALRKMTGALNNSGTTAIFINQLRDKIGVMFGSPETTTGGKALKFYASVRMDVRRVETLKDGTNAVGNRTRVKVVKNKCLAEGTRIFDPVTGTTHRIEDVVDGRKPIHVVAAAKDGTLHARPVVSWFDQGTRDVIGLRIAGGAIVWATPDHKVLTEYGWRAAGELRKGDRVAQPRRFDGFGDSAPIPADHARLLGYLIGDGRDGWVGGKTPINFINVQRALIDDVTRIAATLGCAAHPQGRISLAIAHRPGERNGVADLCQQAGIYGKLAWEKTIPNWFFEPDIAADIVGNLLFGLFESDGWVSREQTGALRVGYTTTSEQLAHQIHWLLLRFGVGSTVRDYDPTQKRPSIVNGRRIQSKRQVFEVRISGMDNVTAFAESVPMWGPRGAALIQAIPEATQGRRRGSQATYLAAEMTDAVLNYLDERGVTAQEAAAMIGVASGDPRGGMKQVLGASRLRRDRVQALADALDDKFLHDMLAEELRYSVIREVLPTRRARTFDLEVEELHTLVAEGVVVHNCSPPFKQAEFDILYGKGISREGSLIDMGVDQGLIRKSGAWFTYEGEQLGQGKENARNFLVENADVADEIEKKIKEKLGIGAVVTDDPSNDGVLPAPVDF
Mtb growth: M. tuberculosis H37Rv growth inhibitors, H37Rv strain (AID 1626) | 220,000 compounds, 0.95% hits | one-dose inhibition, % at 10 µM; IC50 in µM for titrated hits | M. tuberculosis H37Rv growth inhibition; higher % means a stronger effect;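 active = confirmed in a dose series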;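 also: bacteria incubated seven days before Alamar blue readout; 0% = bacteria only wells and 100% = bacteria with antibiotic wells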
Arbovirus inh: blocks arbovirus infection. arbovirus infection cell-based antiviral screen. inhibition, % at 10 µM. 200,000 compounds, 0.37% hits;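 active = inhibition from about 30%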;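 also: bluetongue infection of BSR cells; cell survival read as ATP light after 72 h; 0% = infected wells without compound and 100% = uninfected wells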
Arbovirus inh repeat: second read-out of Arbovirus inh, no call of its own (marks repeat the call); inhibition, %; measured here: 10K subset replicate screen; many hits read low in the repeat;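 first of two repeat runs on a subset; 0% = infected and 100% = uninfected wells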
* marks the source's active call; other numbers are inactive results; & = joins results of further samples.

`COc1ccc(OC)c2[nH]c(=O)c(CCNS(=O)(=O)c3ccc(Cl)cc3)cc12` gave YopH PTP inh -27, Mtb bLac sens 1, RecA intein inh 1.6 and Arbovirus inh 6.
Clc1ccc2c(c1)C1=C(C(c3ccncc3)O2)C(c2ccc(Br)cc2)n2ncnc2N1 (stereo not drawn) was read as YopH PTP inh -12, Mtb bLac sens 100, RecA intein inh -1.1, Mtb growth 2.9µM* and Arbovirus inh -7.
CC(c1ccccc1)N1C(=O)c2ccc(C(=O)NCc3cccnc3)cc2C1=O (stereo not drawn) was read as Mtb bLac sens -17 and RecA intein inh 1.0.
CCN(CC)S(=O)(=O)c1ccc(/C=C/C(=O)Nc2cccc(F)c2)cc1 was read as YopH PTP inh -9, Mtb bLac sens 10, RecA intein inh -1.9, Mtb growth -4% and Arbovirus inh -10.
For CCC(C)(C)NC(=O)Cc1ccccc1OC the results were YopH PTP inh 16, Mtb bLac sens 1, RecA intein inh -2.2, Mtb growth -26% and Arbovirus inh 6.
`COC(=O)N/N=C(\C)c1ccccc1OC(F)F` gave YopH PTP inh -21, Mtb bLac sens 3, RecA intein inh -1.8, Mtb growth -2% and Arbovirus inh -3.
Cc1cc2ncn(/N=C/c3ccc([N+](=O)[O-])s3)c2cc1C was read as YopH PTP inh 22, Mtb bLac sens 100, RecA intein inh 5.7, Mtb growth <0.2µM* and Arbovirus inh -28.
For CNC(=O)C(NC(=O)CNC(=O)c1ccc(Cl)cc1)C(C)(C)C (stereo not drawn) the results were Mtb bLac sens -1, RecA intein inh 2.1, Mtb growth 5% and Arbovirus inh 6.
Screening Cc1ccc2nc(-c3ccc(NC(=O)COC(=O)c4ccc([N+](=O)[O-])o4)cc3)sc2c1 returned YopH PTP inh -13, Mtb bLac sens 100, RecA intein inh 1.7, Mtb growth 18% and Arbovirus inh -25.
Screening O=C(N/N=C1\CCCc2c1[nH]c1ccc([N+](=O)[O-])cc21)c1ccncc1 returned YopH PTP inh 2, Mtb bLac sens 7, RecA intein inh 0.1, Mtb growth -4% and Arbovirus inh -12.
CCCCN(CCCC)CCNC(=O)CSCc1ccc(C)cc1 was read as Mtb bLac sens 27, RecA intein inh 0.3, Mtb growth 0% and Arbovirus inh -1.
For CC(=O)N1CCCc2cc(S(=O)(=O)N3CCCC(C(=O)Nc4cc(C)ccc4C)C3)ccc21 (stereo not drawn) the results were Mtb bLac sens -3 and RecA intein inh 3.9.
Cc1ccc(Nc2nc(N)c([N+](=O)[O-])c(N3CCC(C)CC3)n2)cc1C was read as YopH PTP inh 18, Mtb bLac sens 10, RecA intein inh 9.5, Mtb growth 11% and Arbovirus inh -36.
`CC1=CC(C)C(C[N+]2(C)CCCCC2)C(C)C1` (stereo not drawn) gave Mtb bLac sens 0, RecA intein inh -1.4, Mtb growth -9% and Arbovirus inh 14.
`COC(=O)Cc1c(C)nc2nc(NCc3cccc([N+](=O)[O-])c3)[nH]n2c1=O` gave YopH PTP inh -9, Mtb bLac sens 3, RecA intein inh -3.3, Mtb growth 4% and Arbovirus inh 4.
`COc1ccc(C(C(=O)NCc2ccccc2)N(Cc2ccco2)C(=O)c2snc(C(N)=O)c2N)cc1` (stereo not drawn) gave Mtb bLac sens 8 and RecA intein inh 5.9.
For O=C(CCN1C(=O)/C(=C/c2ccc(F)cc2)SC1=S)NCCc1ccc(O)cc1 the results were Mtb bLac sens 18 and RecA intein inh 2.0.
O=S(=O)(c1ccc(Cl)c(Cl)c1)c1snnc1-c1ccccc1 was read as YopH PTP inh -29, RecA intein inh 80*, Mtb growth 2.7µM* and Arbovirus inh -45.
For CC(C)N(C(=O)COC(=O)c1ccc(Cl)c(S(N)(=O)=O)c1)C(C)C the results were Mtb bLac sens -9, RecA intein inh 1.1, Mtb growth -7% and Arbovirus inh 13.
Screening CC(NC(=O)c1cccc(F)c1)C(c1cccs1)N1CCN(C)CC1 (stereo not drawn) returned YopH PTP inh -34, Mtb bLac sens 0, RecA intein inh 0.3, Mtb growth -7% and Arbovirus inh 6.
`COc1ccc(NC(=S)N(CCCN2CCCC(C)C2)Cc2cccs2)cc1` (stereo not drawn) gave Mtb bLac sens -7, RecA intein inh 1.5, Mtb growth -12% and Arbovirus inh -10.
For CCS(=O)(=O)NCC(c1ccco1)N1CCN(c2ccccc2)CC1 (stereo not drawn) the results were YopH PTP inh -26, Mtb bLac sens 1, RecA intein inh -1.2, Mtb growth -1% and Arbovirus inh 8.
`CC(C)CC(CC(C)C)=NNC(=O)c1ccc2c(c1)OCO2` gave Mtb bLac sens -9, RecA intein inh 3.2, Mtb growth -6% and Arbovirus inh 3.
`CCOC(=O)c1c(NC(=O)C(=O)N/N=C(\C)c2ccc(OC)cc2)sc2c1CCCCC2` gave YopH PTP inh 6, Mtb bLac sens 4, RecA intein inh -4.8, Mtb growth 5% and Arbovirus inh -16.
`Cn1c(SCC(=O)NNC(=O)Cc2ccccc2)nc2ccccc2c1=O` gave Mtb bLac sens -4, RecA intein inh 0.5, Mtb growth -2% and Arbovirus inh 10.
Screening CC1CC(C)(C)CC2(C1)NC(=O)N(CC(=O)NCCc1ccc3c(c1)OCCO3)C2=O (stereo not drawn) returned Mtb bLac sens 0, RecA intein inh -3.0, Mtb growth 2% and Arbovirus inh 9.
Screening CCCCC(=O)Nc1ccc(N2CCN(S(C)(=O)=O)CC2)cc1 returned YopH PTP inh 35, Mtb bLac sens -4, RecA intein inh 0.0, Mtb growth 7% and Arbovirus inh -3.
COc1cc(OC)cc(C(=O)Nc2ccc(-n3cnnn3)c(C)c2)c1 was read as YopH PTP inh -30, Mtb bLac sens 5, RecA intein inh -0.3, Mtb growth 4% and Arbovirus inh 0.
For O=C(NC1CC1)C1=C[C@@H](c2ccccc2)C[C@@H](OCCCCO)O1 the results were Mtb bLac sens -4, RecA intein inh -4.2, Mtb growth -7% and Arbovirus inh 1.
Screening Cc1nc2c(o1)CCc1ccccc1C2N1CCN(C)CC1 (stereo not drawn) returned YopH PTP inh -22, Mtb bLac sens -6&10, RecA intein inh 0.1, Mtb growth -7%&3% and Arbovirus inh 1&1.
Screening CC1CCN(S(=O)(=O)c2ccc3c4c2CC(=O)N4CC(C)S3)CC1 (stereo not drawn) returned Mtb bLac sens -1 and RecA intein inh 3.3.
O=C(CN1C(=O)NC(Cc2ccccc2)C1=O)Nc1ccccc1 (stereo not drawn) was read as YopH PTP inh 6, Mtb bLac sens 8, RecA intein inh -2.0, Mtb growth -2%, Arbovirus inh 3 and Arbovirus inh repeat -1.
O=C(CN1CCC(n2nnc3cc(C(F)(F)F)ccc32)CC1)Nc1ccc2c(c1)CCC2 was read as YopH PTP inh 11, Mtb bLac sens -14, RecA intein inh -1.3, Mtb growth 8% and Arbovirus inh -1.
`O=C(O)CNc1ccc(S(=O)(=O)C(F)(F)F)cc1[N+](=O)[O-]` gave Mtb bLac sens 4 and Mtb growth -8%.
O=C(NCCN1CCN(C(=O)c2ccc([N+](=O)[O-])cc2)CC1)C(=O)NCc1ccccc1 was read as Mtb bLac sens 2 and RecA intein inh -2.7.
`COc1ccccc1C(=O)N/N=C(\C)c1ccc(NC(=O)C2CC2)cc1` gave YopH PTP inh -27, Mtb bLac sens 0, RecA intein inh 1.7, Mtb growth 1% and Arbovirus inh 1.
For CCOC(=O)c1ccc(S(=O)(=O)N2CCN(C3CCCC3)CC2)cc1 the results were Mtb bLac sens -2, RecA intein inh -3.8, Mtb growth -2% and Arbovirus inh 11.
COCCCN1C(=O)c2ccc(C(=O)Nc3cccc(OC)c3)cc2C1=O was read as YopH PTP inh -135, Mtb bLac sens -7, RecA intein inh -0.2, Mtb growth 6% and Arbovirus inh -3.
Screening O=C(NC1CC1)C1CCN(S(=O)(=O)c2cc(Cl)ccc2Cl)CC1 returned Mtb bLac sens -10, RecA intein inh -1.7, Mtb growth -6% and Arbovirus inh -3.
OCCSc1nc(-c2ccccc2)nc2c1CCC2 was read as YopH PTP inh 6, Mtb bLac sens 11, RecA intein inh 2.7, Mtb growth 9% and Arbovirus inh -3.

By substructure: those above with an aryl thioether with sulfur outside any ring.
`Cn1c(SCC(=O)NNC(=O)Cc2ccccc2)nc2ccccc2c1=O` gave Mtb bLac sens -4, RecA intein inh 0.5, Mtb growth -2% and Arbovirus inh 10.
OCCSc1nc(-c2ccccc2)nc2c1CCC2 was read as YopH PTP inh 6, Mtb bLac sens 11, RecA intein inh 2.7, Mtb growth 9% and Arbovirus inh -3.

Filtered by structure, those above with two or more sulfur atoms (four)
For O=C(CCN1C(=O)/C(=C/c2ccc(F)cc2)SC1=S)NCCc1ccc(O)cc1 the results were Mtb bLac sens 18 and RecA intein inh 2.0.
O=S(=O)(c1ccc(Cl)c(Cl)c1)c1snnc1-c1ccccc1 was read as YopH PTP inh -29, RecA intein inh 80*, Mtb growth 2.7µM* and Arbovirus inh -45.
`COc1ccc(NC(=S)N(CCCN2CCCC(C)C2)Cc2cccs2)cc1` (stereo not drawn) gave Mtb bLac sens -7, RecA intein inh 1.5, Mtb growth -12% and Arbovirus inh -10.
Screening CC1CCN(S(=O)(=O)c2ccc3c4c2CC(=O)N4CC(C)S3)CC1 (stereo not drawn) returned Mtb bLac sens -1 and RecA intein inh 3.3.

(more compounds)
`COc1cc(C(=O)NCC(c2ccccc2)N(C)C)ccc1OCC(=O)N1CCOCC1` (stereo not drawn) gave Mtb bLac sens 3, RecA intein inh 9.0, Mtb growth 1% and Arbovirus inh 17.
Screening Cc1ccc(S(=O)(=O)N2CCCCC2)cc1NC(=O)COC(=O)c1ccc(O)cc1 returned Mtb bLac sens -1, RecA intein inh 2.3, Mtb growth -6% and Arbovirus inh -2.
For Cn1c(C(=O)NCCCN2CCN(c3ccccc3F)CC2)cc2c(=O)[nH]c3ccccc3c21 the results were YopH PTP inh -1, Mtb bLac sens 78, RecA intein inh -1.7, Mtb growth -10% and Arbovirus inh -2.
`CCOC(=O)c1[nH]c2cc3c(cc2c1NC(=O)CN1CCC2(CC1)OCCO2)OCO3` gave YopH PTP inh -38, Mtb bLac sens -2, RecA intein inh -2.8, Mtb growth -10% and Arbovirus inh -3.
For CCN(CC)S(=O)(=O)c1cccc(-c2nnc(SCC(=O)NC)n2CCc2ccccc2)c1 the results were YopH PTP inh -36, Mtb bLac sens -10, RecA intein inh 2.2, Mtb growth -3% and Arbovirus inh -3.
Screening COc1ccc(C(=O)OCC(=O)NC(=O)CCSc2ccccc2)cc1 returned YopH PTP inh -15, Mtb bLac sens -2, RecA intein inh -0.2, Mtb growth 3% and Arbovirus inh -1.
For CCC(C)NC(=O)CN(c1cc(C)cc(C)c1)S(=O)(=O)c1c(C)[nH]c(=O)[nH]c1=O (stereo not drawn) the results were Mtb bLac sens -1, RecA intein inh 0.4 and Mtb growth -1%.
`Cc1ccc(C)c(N2CCN(C(=O)CC3Sc4ccccc4NC3=O)CC2)c1` (stereo not drawn) gave YopH PTP inh -19, Mtb bLac sens 13, RecA intein inh 12, Mtb growth 8% and Arbovirus inh -27.
Screening Cc1csc(SCC(=O)c2ccc(S(=O)(=O)N3CCOCC3)cc2)n1 returned YopH PTP inh -52, Mtb bLac sens -7, RecA intein inh 3.9, Mtb growth -3%, Arbovirus inh -2 and Arbovirus inh repeat -3.
Screening COc1ccc(N(CC(=O)NCc2ccc3c(c2)OCO3)S(=O)(=O)c2c(C)nn(C)c2C)cc1 returned YopH PTP inh -35, Mtb bLac sens 1, RecA intein inh -0.2, Mtb growth 66%, Arbovirus inh 4 and Arbovirus inh repeat -1.
CCCOc1ccc(C(=O)Nc2ccc(C)cc2[N+](=O)[O-])cc1 was read as YopH PTP inh -9, Mtb bLac sens -2, Mtb growth 1% and Arbovirus inh 2.
CCCCCCSc1ccc(-c2nc3ccc(C)cn3c2NCc2ccccc2)cc1 was read as Mtb bLac sens -4 and RecA intein inh 0.3.
`Cc1cc(C)n(/N=C\c2c(O)ccc3ccccc23)c(=O)c1C(N)=O` gave YopH PTP inh -15, Mtb bLac sens 2, RecA intein inh -0.1, Mtb growth -8% and Arbovirus inh 4.
Screening O=C(O)c1ccccc1NC(=S)NC(=O)c1sc2ccccc2c1Cl returned Mtb bLac sens -2, RecA intein inh -3.6, Mtb growth -4% and Arbovirus inh 13.
Screening Cc1ccc(C(=O)N/C(=C\C=C\c2ccccc2)C(=O)NCc2ccco2)cc1 returned YopH PTP inh -20, Mtb bLac sens 12, RecA intein inh 6.3, Mtb growth 16% and Arbovirus inh -6.
Cc1nc2c(sc3nc4c(cc32)COC(C)(C)C4)c(=O)o1 was read as YopH PTP inh -43, Mtb bLac sens 56, Mtb growth -2% and Arbovirus inh 4.
Screening CCC1CCCCN1C(=O)CCc1nnc(Cc2c[nH]c3ccccc23)o1 (stereo not drawn) returned Mtb bLac sens -10, RecA intein inh 0.6, Mtb growth -3% and Arbovirus inh -2.

Some of the compounds tested. The share of hits here may be higher or lower than overall.
